Fam108B counter = blocks mouse Fam108B hydrolase in RBBP9 counter-screen; recombinant Fam108B, FP-Rh probe fluorescence polarization; inhibition, % at 9.51 µM; hit rate 0.33% among 300,000;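 active means inhibition above the screen mean inhibition plus 3 SD, computed separately per campaign, cut at about 18% in these data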;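 further: inhibitors lower polarization as less probe binds the enzyme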
PAD4 FP inh = PAD4 (human) enzyme inhibition | Q9UM07 | recombinant PAD4, RCA probe fluorescence polarization | inhibition, % at 6.36 µM | hit rate 0.41% among 330,000 | AID 485272;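 active means percent inhibition above a cutoff equal to the mean of all tested compounds plus 3 SD, cut at about 15% in these data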;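 further: 0% = PAD4 with RCA probe and DMSO and 100% = probe without PAD4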
GSTO1 counter = blocks human GSTO1 in RBBP9 counter-screen. recombinant GSTO1, activity-based probe fluorescence polarization. P78417. hit rate 1.1% among 300,000. AID 1974. inhibition, % at 5.96 µM;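 active means inhibition above the campaign mean inhibition plus 3 SD, cut at about 35% in these data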;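 further: 0% = GSTO1-1 with DMSO and 100% = wells lacking GSTO1-1 enzyme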
Target sequence (P78417 whole entry, looked up): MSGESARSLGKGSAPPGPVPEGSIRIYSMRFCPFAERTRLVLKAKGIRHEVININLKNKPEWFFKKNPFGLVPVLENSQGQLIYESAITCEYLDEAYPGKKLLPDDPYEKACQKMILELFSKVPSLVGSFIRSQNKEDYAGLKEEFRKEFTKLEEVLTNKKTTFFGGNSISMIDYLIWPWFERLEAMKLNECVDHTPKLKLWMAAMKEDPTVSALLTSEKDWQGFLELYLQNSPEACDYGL
PME-1 primary = PME-1 (human) inhibition; Q9Y570; recombinant PME-1, FP-Rh probe fluorescence polarization; inhibition, % at 5.9 µM; hit rate 0.53% among 320,000; AID 2130;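 active means inhibition above the campaign mean of all compounds plus 3 SD, cut at about 26% in these data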;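 further: competitive labeling of PME-1 active site by serine hydrolase directed probe; 0% = PME-1 with DMSO and 100% = wells lacking PME-1 enzyme; inhibitors block probe labeling so polarization falls and inhibition rises; many of its hits are not listed in these tables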
Target sequence (Q9Y570 whole entry, looked up): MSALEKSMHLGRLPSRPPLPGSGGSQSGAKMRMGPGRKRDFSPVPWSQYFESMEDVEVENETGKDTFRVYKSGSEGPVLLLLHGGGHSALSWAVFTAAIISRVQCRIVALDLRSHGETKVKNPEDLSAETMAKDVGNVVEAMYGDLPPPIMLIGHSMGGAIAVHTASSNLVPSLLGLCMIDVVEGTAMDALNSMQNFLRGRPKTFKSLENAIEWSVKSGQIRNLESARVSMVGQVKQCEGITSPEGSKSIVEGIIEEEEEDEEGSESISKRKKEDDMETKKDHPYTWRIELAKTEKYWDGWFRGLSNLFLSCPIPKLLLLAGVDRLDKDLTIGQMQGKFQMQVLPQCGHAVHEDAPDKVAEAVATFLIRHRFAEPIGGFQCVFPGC
TPT1 inh = inhibitors of Candida albicans tRNA 2'-phosphotransferase TPT1 | AID 1962 | hit rate 0.81% among 300,000 | inhibition, % at 5 µM | recombinant caTPT1, FP RNA substrate dephosphorylation;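 active means inhibition above the mean of all tested compounds plus 3 SD, set per screening campaign, cut at about 24% in these data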;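 further: plate controls were DMSO alone for no effect and ferristatin control at 100 nM for full effect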
MEX-5 binding = C. elegans MEX-5 TCR-2 RNA binding activity; Q9XUB2; hit rate 0.38% among 300,000; activity score (negative = inhibition of binding), % at 10 µM; AID 1832; MEX-5/FITC-TCR2 RNA binding, fluorescence polarization; hits give low values;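 active means inhibition past about -25% in most replicates, and total fluorescence under double the plate's negative control median, limit read from the data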;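 further: 0% = DMSO and -100% = 5 µM competing unlabeled TCR2 RNA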
Target sequence (Q9XUB2 whole entry, looked up): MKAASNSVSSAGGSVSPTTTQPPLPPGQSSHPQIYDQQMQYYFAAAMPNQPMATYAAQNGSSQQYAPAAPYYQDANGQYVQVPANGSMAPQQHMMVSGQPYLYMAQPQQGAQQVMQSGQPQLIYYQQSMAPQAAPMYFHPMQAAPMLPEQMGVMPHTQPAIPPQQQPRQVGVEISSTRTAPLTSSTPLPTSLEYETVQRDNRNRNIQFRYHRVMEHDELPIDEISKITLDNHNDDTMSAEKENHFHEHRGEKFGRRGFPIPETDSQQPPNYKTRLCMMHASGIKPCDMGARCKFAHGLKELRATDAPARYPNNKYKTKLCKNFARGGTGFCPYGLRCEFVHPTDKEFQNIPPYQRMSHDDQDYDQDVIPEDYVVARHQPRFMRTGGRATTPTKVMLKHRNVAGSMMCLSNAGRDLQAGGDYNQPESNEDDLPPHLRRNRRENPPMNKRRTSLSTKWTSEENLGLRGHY
GLD-1 TGE inh = GLD-1-TGE RNA interaction inhibition (C. elegans); purified GLD-1 + fluorescein TGE RNA, fluorescence polarization; inhibition, % at 5.96 µM; Q17339; hit rate 0.44% among 320,000; AID 2280;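 active means percent inhibition above a per-plate cutoff, the plate mean of test compounds plus 3 SD, cut at about 30% in these data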;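 further: 0% = DMSO wells with GLD-1 and probe and 100% = wells lacking GLD-1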
Numbers without * were called inactive; · = not tested or not shown. Some of the compounds tested; rates above refer to the full screens.

SMILES | Fam108B counter | PAD4 FP inh | GSTO1 counter | PME-1 primary | TPT1 inh | MEX-5 binding | GLD-1 TGE inh
CCc1cc(C(c2ccncc2)N2CCN(C)CC2)c(NC(=O)c2ccccc2)s1 (stereo not given) | -1 | -1 | 0 | 2 | -3 | 0.8 | -9
C=CCc1cc(OC)ccc1OCCON1C(=O)CCC1=O | 1 | -2 | -1 | -2 | -3 | 0.3 | -7
CCOC(=O)C(NC(=O)c1ccc(F)cc1)(Nc1sc2c(c1C(N)=O)CCC2)C(F)(F)F (stereo not given) | -1 | -3 | 2 | -4 | 6 | 2.9 | -8
COc1ccccc1CNC(=O)c1ccc2nc3[nH]c4ccccc4c3nc2c1 | -42 | -6 | -7 | -31 | 1 | · | -3
CCOC(=O)C(NC(=O)c1cccc(Cl)c1)(Nc1sc2c(c1C(N)=O)CCC2)C(F)(F)F (stereo not given) | 2 | -6 | -4 | -7 | 11 | 5.5 | -5
CC12CCC3c4ccc(O)cc4CCC3C1CCC2=O (stereo not given) | -1 | -5 | -1 | 2 | 2 | · | 6
CCOc1ccc(-n2c(SCC(=O)N3CCc4ccccc43)nnc2-c2c[nH]c3ccccc23)cc1 | -10 | -2 | 0 | -7 | 0 | -1.6 | 0
COCCn1c(=NC(=O)CSC(C)=O)sc2cc(F)ccc21 | 2 | 1 | -2 | 2 | -1 | 1.3 | -5
COc1cc(NC(=O)c2nccnc2N)cc(C(=O)Nc2cccc(C(F)(F)F)c2)c1 | -35 | -2 | 3 | -88 | -1 | 0.8 | 3
CCN1C(=O)CSc2ccc(C(=O)NC3CCCCC3)cc21 | 1 | -3 | 0 | 4 | 3 | -0.8 | -6
Cc1cc(C)nc(SCc2ccc(C(=O)NNC(=O)Nc3cccc(Cl)c3)cc2)n1 | -6 | 0 | -4 | -14 | 4 | 0.7 | 2
CCOc1ccc(NC(=O)C2(c3ccc(OC)c(OC)c3)CCCC2)cc1 | 14 | 0 | 4 | 3 | -1 | -0.9 | 11
CCOCC(=O)Nc1cc(C(=O)Nc2cc(C)cc(C)c2)ccc1Cl | -4 | 1 | -1 | 5 | -4 | -2.1 | -1
CC(CCc1ccccc1)NC(=O)COC(=O)C1CCC(C(C)(C)C)CC1 (stereo not given) | 2 | 1 | 42* | -1 | 3 | 0.0 | -2
CCCCC(=O)NC(Nc1sc2c(c1C(N)=O)CCCC2)(C(=O)OCC)C(F)(F)F (stereo not given) | 4 | 4 | 5 | -5 | 0 | 0.0 | 3
CS(=O)(=O)c1ccc([C@@H](O)[C@@H](CO)NC(=O)C(Cl)Cl)cc1 | -3 | 4 | 1 | -2 | -1 | 0.4 | 6
CCCCCNCc1cccc(Br)c1 | -1 | 1 | -2 | -4 | -4 | -0.2 | 0
COc1ccc(-c2nnc(-c3ccc(N)cc3)o2)cc1 | 8 | -2 | 1 | 7 | 0 | -0.2 | 5
CC1(C)Cc2c(C#N)c(N3CCN(C(=O)c4ccco4)CC3)nc(-c3ccco3)c2CS1 | 2 | -7 | -4 | 4 | 7 | 1.8 | 8
CCOc1cc(S(=O)(=O)NCc2ccc3c(c2)OCO3)c(C)cc1C | 2 | 1 | -2 | 9 | -5 | -1.6 | -2
Cc1cc(C(F)(F)F)c2c(n1)sc1c(O)cc(=O)[nH]c12 | 3 | 2 | 19 | -1 | -5 | 0.9 | 3
C[C@H]1C[C@H]2[C@@H]3CCC4=CC(=O)C=C[C@]4(C)[C@@]3(F)[C@@H](O)C[C@]2(C)[C@@]1(O)C(=O)CO | 0 | -1 | 2 | 6 | 1 | -0.4 | 7
COc1ccc(-c2ccc(-c3nnc(-c4cc(OC)ccc4OC)o3)cc2)cc1 | 2 | -2 | 8 | -6 | -1 | 0.8 | 7
CCc1ccc(NC(=O)N(C2CCC(C)CC2)C2CCN(C(C)=O)CC2)cc1 (stereo not given) | -4 | -3 | 1 | -2 | 6 | 1.9 | -8

Part of the list above in order of length of the SMILES, rising:
SMILES | Fam108B counter | PAD4 FP inh | GSTO1 counter | PME-1 primary | TPT1 inh | MEX-5 binding | GLD-1 TGE inh
CCOCC(=O)Nc1cc(C(=O)Nc2cc(C)cc(C)c2)ccc1Cl | -4 | 1 | -1 | 5 | -4 | -2.1 | -1
COc1ccc(-c2ccc(-c3nnc(-c4cc(OC)ccc4OC)o3)cc2)cc1 | 2 | -2 | 8 | -6 | -1 | 0.8 | 7
CS(=O)(=O)c1ccc([C@@H](O)[C@@H](CO)NC(=O)C(Cl)Cl)cc1 | -3 | 4 | 1 | -2 | -1 | 0.4 | 6

Later entries:
SMILES | Fam108B counter | PAD4 FP inh | GSTO1 counter | PME-1 primary | TPT1 inh | MEX-5 binding | GLD-1 TGE inh
CCOCC(=O)Nc1cc(C(=O)Nc2ccccc2)ccc1Cl | 3 | 2 | 4 | -5 | 2 | 1.3 | 8
Cn1c(NCc2ccco2)nc2c1c(=O)n(Cc1ccc(Cl)cc1)c(=O)n2C | 5 | -3 | 10 | -2 | 2 | -2.8 | 1
CC1CCCCN1C(=O)CSc1nc(C2CC2)nc2c1cnn2-c1ccccc1 (stereo not given) | 0 | 2 | 2 | 1 | -1 | -0.2 | 1
Cn1c(=O)n(Cc2ccc(F)cc2)c(=O)c2c1nc1n2CCN1Cc1ccco1 | 4 | 0 | 8 | 1 | 2 | -1.8 | 2
CC1(C)CC(CCNC(=O)c2ccco2)CC(C)(C)N1 | 0 | -4 | 3 | -6 | 1 | -2.3 | -2
CCCC(=O)Nc1ccc(-c2nc3cc(C)c(C)cc3o2)cc1 | -23 | -9 | -19 | -17 | -2 | 0.8 | -5
Cc1nn(-c2ccccc2Cl)c2sc(C(=O)Nc3nnc(C4CC4)s3)cc12 | 0 | 1 | 0 | -7 | 2 | -8.0 | 5
CC(C)Nc1nc(N(c2ccccc2)c2ccccc2)nc(-n2ccnc2)n1 | 1 | 1 | -5 | -4 | 3 | · | -5
CCCC1O[C@@H]2C[C@H]3[C@@H]4CCC5=CC(=O)C=C[C@]5(C)[C@H]4[C@@H](O)C[C@]3(C)[C@]2(C(=O)CO)O1 (stereo not given in full) | -1 | 2 | 4 | 3 | 0 | -2.0 | 3
Cc1ccc(-c2nc3ncccc3o2)cc1NC(=O)Cc1ccc(Cl)cc1 | 2 | 0 | 3 | 4 | -6 | 1.7 | 4
C(/C=C/C=C/Nc1ccccc1)=Nc1ccccc1 | -3 | 0 | 2 | 2 | 0 | -2.8 | 4
CCOc1cc(/C=N\NC(=O)Cc2ccccc2)ccc1OCC(=O)Nc1ccc(C)c(C)c1 | -3 | 2 | -2 | 0 | 6 | · | -1
CCCN1C(=O)c2ccc(C(=O)NC3CCCCC3)cc2C1=O | 1 | 3 | 5 | -7 | 1 | 1.9 | 4
Cc1ccc(-c2nn(-c3ccccc3)cc2/C=N/NC(=O)c2ccncc2)o1 | -16 | -1 | -8 | -25 | 0 | -0.3 | 3
Cc1nc(NC(=O)c2cc3c(C)nn(-c4ccccc4)c3s2)sc1C(=O)Nc1ccccc1 | -10 | -8 | -15 | -18 | 4 | -1.2 | -6
CC(=O)N1CCN(c2nc(C)nc3sc4c(c23)CCC(C)C4)CC1 (stereo not given) | -6 | 2 | 3 | 4 | 0 | -2.1 | -7
CCc1nc(SCC(=O)N2CCCC2)c2ccccc2n1 | 5 | 6 | -2 | 2 | 0 | -2.4 | -5
CC(=O)Nc1ccc(Nc2ncc([N+](=O)[O-])c(Nc3ccc(NC(C)=O)cc3)n2)cc1 | 1 | 0 | 10 | 10 | 3 | -2.7 | -6
COc1ccc(CN2C(=O)c3cccnc3C2Nc2cc(Cl)ccc2OC)cc1 (stereo not given) | -5 | 4 | -2 | 3 | 1 | -0.8 | 8
Nc1nc(Cl)nc2c1ncn2C1CC(O)C(CO)O1 (stereo not given) | -2 | -1 | 4 | -1 | -1 | 2.3 | 3
CCN(CC)C(=O)c1cnn(-c2ccccc2)c1NC(=O)c1ccco1 | -2 | 0 | -2 | 4 | 0 | -1.5 | 6
NS(=O)(=O)c1ccc(N/N=C/c2ccc3c(c2)OCO3)c([N+](=O)[O-])c1 | 7 | -3 | -2 | 0 | -1 | -0.7 | 1
Cc1ccc(-c2nnc(SCC(=O)Nc3nc4c(s3)CCCC4)n2C)cc1 | 2 | 4 | 8 | -2 | 0 | -1.1 | 0
Cn1c(SCC(=O)NCc2ccco2)nnc1-c1ccc(S(=O)(=O)N2CCOCC2)cc1 | 4 | 1 | 4 | -3 | -1 | 1.3 | 3
O=C(O)CCN1Cc2ccccc2C1=O | 3 | -3 | -4 | -2 | 4 | -0.1 | 5
O=C(COC(=O)c1ccc2ncsc2c1)Nc1ncc(Cl)cc1Cl | 3 | 4 | 2 | 13 | 1 | -2.2 | 4
Nc1ccc(C(=O)NCC(=O)O)cc1 | 2 | -1 | 5 | 2 | -3 | · | 3
COC(=O)CN1C(=S)N(c2ccccc2)C(=O)C1CC(=O)Nc1ccc(Cl)cc1 (stereo not given) | -1 | 1 | 2 | 3 | -2 | 0.8 | -5
O=[N+]([O-])c1ccc(/C=C/c2nc3ccc([N+](=O)[O-])cc3[nH]2)cc1 | -5 | -8 | 6 | 2 | 6 | -7.4 | 7
COc1cc(C(F)(F)F)c(C(=O)N(C)c2ccc(Cl)cc2)cn1 | 0 | 2 | 5 | 6 | -2 | 0.7 | 5
CCOc1ccc(N=C2NC(=O)S/C2=C\c2ccc(OC)cc2)cc1 | -10 | -5 | 3 | -4 | -1 | -5.4 | 0
CC(O)Cn1cnc2c1c(=O)n(C)c(=O)n2C (stereo not given) | -5 | -6 | 3 | -4 | 0 | 0.7 | 4
O=C(CCc1ccc(CCC(=O)c2cccs2)s1)c1cccs1 | -5 | -4 | 5 | 4 | 0 | 4.2 | 4
CC1=C(/C=C/C(C)=C/C=C/C(C)=C\C(=O)O)C(C)(C)CCC1 | 5 | -1 | 2 | 4 | 1 | -2.7 | 3

A draw from above in order of length of the SMILES, ascending.
SMILES | Fam108B counter | PAD4 FP inh | GSTO1 counter | PME-1 primary | TPT1 inh | MEX-5 binding | GLD-1 TGE inh
O=C(O)CCN1Cc2ccccc2C1=O | 3 | -3 | -4 | -2 | 4 | -0.1 | 5
Nc1ccc(C(=O)NCC(=O)O)cc1 | 2 | -1 | 5 | 2 | -3 | · | 3
CC(O)Cn1cnc2c1c(=O)n(C)c(=O)n2C (stereo not given) | -5 | -6 | 3 | -4 | 0 | 0.7 | 4
CCc1nc(SCC(=O)N2CCCC2)c2ccccc2n1 | 5 | 6 | -2 | 2 | 0 | -2.4 | -5
O=C(CCc1ccc(CCC(=O)c2cccs2)s1)c1cccs1 | -5 | -4 | 5 | 4 | 0 | 4.2 | 4
O=C(COC(=O)c1ccc2ncsc2c1)Nc1ncc(Cl)cc1Cl | 3 | 4 | 2 | 13 | 1 | -2.2 | 4
CCOc1ccc(N=C2NC(=O)S/C2=C\c2ccc(OC)cc2)cc1 | -10 | -5 | 3 | -4 | -1 | -5.4 | 0
CCN(CC)C(=O)c1cnn(-c2ccccc2)c1NC(=O)c1ccco1 | -2 | 0 | -2 | 4 | 0 | -1.5 | 6
Cc1ccc(-c2nnc(SCC(=O)Nc3nc4c(s3)CCCC4)n2C)cc1 | 2 | 4 | 8 | -2 | 0 | -1.1 | 0
CC1=C(/C=C/C(C)=C/C=C/C(C)=C\C(=O)O)C(C)(C)CCC1 | 5 | -1 | 2 | 4 | 1 | -2.7 | 3
COC(=O)CN1C(=S)N(c2ccccc2)C(=O)C1CC(=O)Nc1ccc(Cl)cc1 (stereo not given) | -1 | 1 | 2 | 3 | -2 | 0.8 | -5
Cn1c(SCC(=O)NCc2ccco2)nnc1-c1ccc(S(=O)(=O)N2CCOCC2)cc1 | 4 | 1 | 4 | -3 | -1 | 1.3 | 3
NS(=O)(=O)c1ccc(N/N=C/c2ccc3c(c2)OCO3)c([N+](=O)[O-])c1 | 7 | -3 | -2 | 0 | -1 | -0.7 | 1
O=[N+]([O-])c1ccc(/C=C/c2nc3ccc([N+](=O)[O-])cc3[nH]2)cc1 | -5 | -8 | 6 | 2 | 6 | -7.4 | 7
CC(=O)Nc1ccc(Nc2ncc([N+](=O)[O-])c(Nc3ccc(NC(C)=O)cc3)n2)cc1 | 1 | 0 | 10 | 10 | 3 | -2.7 | -6

Source: PubChem BioAssay (several laboratories)
